PV pol inh – poliovirus RdRp elongation inhibitors, primary screen, biochemical, fluorescence polarization, total intensity; Genome polyprotein (Poliovirus type 1 (strain Mahoney)), P03300; poliovirus polymerase elongation; stronger effect = lower value; % elongation, % (compound at 16.7 µg/mL); hit rate 0.66% among 150,000; in the data active = % elongation below about 90%; also: some results filed as inactive read as strong as hits
Target sequence (P03300 1749-2209 limits assumed): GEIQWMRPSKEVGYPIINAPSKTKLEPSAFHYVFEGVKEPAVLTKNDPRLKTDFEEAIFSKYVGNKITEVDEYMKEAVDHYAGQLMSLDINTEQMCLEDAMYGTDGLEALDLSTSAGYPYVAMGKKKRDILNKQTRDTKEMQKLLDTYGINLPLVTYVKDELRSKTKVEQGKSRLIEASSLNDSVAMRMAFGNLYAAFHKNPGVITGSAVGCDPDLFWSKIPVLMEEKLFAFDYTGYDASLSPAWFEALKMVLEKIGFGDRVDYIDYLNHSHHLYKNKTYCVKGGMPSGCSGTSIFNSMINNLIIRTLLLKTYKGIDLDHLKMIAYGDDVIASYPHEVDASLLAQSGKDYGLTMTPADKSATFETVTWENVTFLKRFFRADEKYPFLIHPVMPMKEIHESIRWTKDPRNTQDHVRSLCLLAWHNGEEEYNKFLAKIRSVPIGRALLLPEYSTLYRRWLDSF
PV pol inh intensity – second read-out of PV pol inh, no call of its own (marks repeat the call); % elongation; measured here: total intensity read-out; formula for this scale not given here;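 total fluorescence in place of polarization; lower means less elongation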
An asterisk follows results filed as active. These rows are one share of the data, so the mix of outcomes need not match the whole.

Below each compound: PV pol inh	PV pol inh intensity
CCc1ccc(NC(=O)Cn2c(=O)n(CCC(=O)NCCc3ccc(OC)c(OC)c3)c(=O)c3ccccc32)cc1
 : 107	103
COc1ccc(CNC(=O)C2CCN(S(=O)(=O)Cc3ccccc3)CC2)cc1
 : 107	94
COc1ccc(CNC(=O)C2CCCCN2S(=O)(=O)c2ccc(F)cc2)cc1 (stereo not given)
 : 107	111
Cc1ccc(-c2nc3c(cnn3-c3ccccc3)c(=O)n2-c2cccc(Cl)c2)cc1
 : 103	104
CCCCNC(=O)CSc1nc2n[nH]c(C)c2c(=N)n1-c1cccc(C)c1
 : 97	98
O=C(CSc1nc(-c2cccs2)nc2cc(=O)[nH]n12)Nc1ccccc1F
 : 107	112
CCOC(=O)c1cccc(NC(=O)NCCc2c(C)nn(C)c2C)c1
 : 106	108
CCc1ccccc1NC(=O)c1sc2nc(C)cc(COC)c2c1N
 : 103	95
CCN(CC)c1ccc(C2C(C(N)=O)=C(C)Nc3nc(SCc4ccccc4Cl)nn32)cc1 (stereo not given)
 : 106	108
COc1cccc(N2CCN(C(=O)CCS(=O)(=O)c3ccc4c(c3)CC(=O)N4C)CC2)c1
 : 106	108

One compound at a time (already shown). Values in the order: PV pol inh	PV pol inh intensity
Profile of COc1cccc(N2CCN(C(=O)CCS(=O)(=O)c3ccc4c(c3)CC(=O)N4C)CC2)c1 = 106	108
Profile of COc1ccc(CNC(=O)C2CCCCN2S(=O)(=O)c2ccc(F)cc2)cc1 (stereo not given) = 107	111
Profile of CCc1ccccc1NC(=O)c1sc2nc(C)cc(COC)c2c1N = 103	95
Profile of CCN(CC)c1ccc(C2C(C(N)=O)=C(C)Nc3nc(SCc4ccccc4Cl)nn32)cc1 (stereo not given) = 106	108

Further entries follow:
Below each compound: PV pol inh	PV pol inh intensity
CC(=O)Nc1nonc1-c1nnc(SCC(=O)Nc2ccc(C)cc2C)n1C
 : 108	110
COc1ccccc1C(=O)n1nc(-c2ccco2)nc1NCc1ccc(Cl)cc1
 : 107	107
CCC(C)NC(=O)c1cc(-c2cccc(OC)c2)on1 (stereo not given)
 : 105	106
O=C(C1CCN(S(=O)(=O)c2cccc3nonc23)CC1)N1CCN(c2ccccc2F)CC1
 : 102	106
COc1ccc(C)cc1NC(=O)c1c(C)oc2ncn(CC(C)C)c(=O)c12
 : 111	113
COc1ccc(-n2ncc(C(=O)NCCN3CCOCC3)c2C2CCN(C(=O)OC(C)(C)C)CC2)cc1
 : 102	98
Cc1ccc2c(CNCc3cccc(Cl)c3)c(C(=O)O)n(Cc3ccc(F)cc3Cl)c2c1
 : 112	115
Cc1cccc(NS(=O)(=O)c2nnc(NC(=O)c3cccc(C)c3)s2)c1
 : 111	115
CC(C)CCNC(=O)CCC(=O)N1Cc2ccccc2Oc2ncccc21
 : 99	101
O=C1OCC2=C1C(c1cccc(Cl)c1)CC(=O)N2c1ccc(C(F)(F)F)cc1 (stereo not given)
 : 106	109
COc1cc(NC(=O)c2nc(-c3ccncc3)no2)cc(OC)c1OC
 : 114	114
CCCN1C(=O)C(Cc2nc3ccccc3c(=O)n2-c2ccccc2)c2cc(C)ccc21 (stereo not given)
 : 103	105
COc1cccc(N2CCN(C(=O)Cn3cnc4onc(-c5ccc(F)cc5)c4c3=O)CC2)c1
 : 98	96
CCc1ccc(CN(C(=O)c2cc3ccccc3oc2=O)C2CCS(=O)(=O)C2)cc1 (stereo not given)
 : 100	105
CCc1ccc(-c2nc(CS(=O)CC(=O)NCCc3ccc(Cl)cc3)c(C)o2)cc1 (stereo not given)
 : 105	108
CCOc1ccc(NC(=O)CN(C)S(=O)(=O)c2ccc3c(c2)c(=O)n(C)c(=O)n3C)cc1
 : 98	101
COc1ccc(-n2ncc3c(NC(C)(C)CO)ncnc32)cc1
 : 106	111
COc1ccc(NC(=O)CSCc2cc(=O)c3cc(C)ccc3[nH]2)cc1
 : 106	107
CCOC(=O)c1ccc(NC(=O)CSc2nc3c([nH]c4ccccc43)c(=O)n2C)cc1
 : 109	108
COc1ccc(Cl)cc1NCc1nnc2n1CCCCC2
 : 112	102
COc1cc(C2NC(=O)c3c(sc4c3CCN(C)C4)N2)cc(Br)c1OC(=O)c1ccc(C)cc1 (stereo not given)
 : 108	122
COCCNC(=O)c1ccc2c(c1)N(Cc1cccc(Cl)c1)C(=O)c1ccccc1S2(=O)=O
 : 108	111
CCC(=O)N1c2ccccc2CC1C(=O)NCc1cccc(OC)c1OC (stereo not given)
 : 107	113
Clc1ccccc1-c1nnc(COc2ccccc2)o1
 : 101	107
O=C(CCS(=O)(=O)c1cc(Br)cc2c1N(C(=O)C1CC1)CC2)N1CCN(c2ccccc2)CC1
 : 102	104
CCOC(=O)c1ccc(NC(=O)Cn2c(=O)n(-c3ccc(C)cc3)c(=O)c3c2cnn3C)cc1
 : 105	110
CCNC(=O)c1c(NC(=O)Cc2coc3cc(C)ccc23)sc2c1CCCC2
 : 121	116
O=C(Cc1ccc(F)cc1)Nc1cccc(-c2nc3cccnc3s2)c1
 : 111	110
CCCN(CCC)C(=O)c1c2c(nc3ccccc13)C(=O)N(C1CCCCC1)C2
 : 102	109
Cc1ccc(C)c(S(=O)(=O)c2cnc(SCC(=O)Nc3ccc(F)cc3F)[nH]c2=O)c1
 : 101	101
CCOc1nc(-c2ccc(C)cc2)ccc1-c1noc(-c2ccccc2F)n1
 : 107	105
CC1(C)C(=O)N(CC(=O)Nc2ccc(Cl)cc2)c2ccccc21
 : 110	106
CCOC(=O)C(=O)NCC(c1cccnc1)N1CCN(c2ccccc2)CC1 (stereo not given)
 : 112	106
CC(=O)c1nn(-c2ccc(OC(F)(F)F)cc2)nc1Nc1ccccc1
 : 115	115
CCOC(=O)c1c(NC(=O)C2c3ccccc3Oc3ccccc32)sc2c1CCC(CC)C2 (stereo not given)
 : 101	102
Cc1nc2ccc(S(=O)(=O)CCC(=O)Nc3ccc(F)cc3C)cc2s1
 : 108	108
CCOC(=O)N1CCN(Cc2nc3cc(NC(=O)C(C)C)ccc3n2C(C)C)CC1
 : 102	104
Cc1ccc(Cl)cc1Nc1nc2ccccc2c2nncn12
 : 108	110
CCOc1ccc(Nc2c(S(=O)(=O)c3ccc(C)cc3)cnc3ccc(F)cc23)cc1
 : 103	109
COCCn1c(SCc2ccccc2F)nc2c([nH]c3ccccc32)c1=O
 : 111	114
COc1ccc(NC(=O)N2CCN(S(=O)(=O)c3ccc4c(ccn4C)c3)CC2)c(OC)c1
 : 107	111
O=C(Nc1cccc(Cl)c1Cl)c1cc(S(=O)(=O)N2CCCCC2)ccc1F
 : 102	106
COc1ccc(S(=O)(=O)NCCc2cn3ccsc3n2)cc1
 : 102	106
COC(=O)COc1ccc2oc(-c3ccc(OC)cc3)cc(=O)c2c1
 : 101	102
Cc1cccc(CC(=O)Nc2c(C(=O)Nc3cccc(F)c3)oc3ccccc23)c1
 : 101	104
Cc1cccc(CNC(=O)CCn2c(=O)c3cccn3c3ccc(F)cc32)c1
 : 95	80
COc1ccc(S(=O)(=O)N2CCN(Cc3nc4ccc(C)cc4o3)CC2)cc1
 : 100	104
CCc1nc2ccccc2n1CCCCOc1ccccc1C
 : 106	105
CCS(=O)(=O)N1CCc2cc(C(=O)N3CCN(c4ccccc4OC)CC3)ccc21
 : 100	95
COc1ccc(-c2nn(CC(=O)NC3CCCC3)c3c2cnc2ccc(F)cc23)cc1
 : 111	117

Continued:
Below each compound: PV pol inh	PV pol inh intensity
O=C(NCc1ccccc1)C(=O)Nc1ccc2nc3n(c(=O)c2c1)CCCCC3
 : 109	108
O=C(Nc1ccc(Cl)cc1)c1ccc2oc(=O)n(Cc3ccccc3)c2c1
 : 110	108
COCCn1c(C)cc(O)c(C(c2ccc(C)cc2)N2CCCCC2)c1=O (stereo not given)
 : 112	107
O=c1c2oc3ccccc3c2n(Cc2ccccc2F)c(=O)n1Cc1ccccc1
 : 100	102
O=C(NCc1ccccc1)c1ccc(CSc2nc3cccnc3n2Cc2ccccc2)cc1
 : 103	110
COc1ccccc1CNC(=O)c1cc2ccc3ccc(C)[nH]c3c2n1
 : 113	107
CCCCn1cc(S(=O)(=O)c2ccccc2)c(=O)c2cc(F)c(N3CCC(C)CC3)cc21
 : 108	108
CCOC(=O)c1cnc2c(OC)cccc2c1Nc1cccc(O)c1
 : 107	111
COc1ccc(C(=O)Nc2nnc(C(C)C)s2)cc1OC
 : 102	104
COc1ccc(Cl)cc1NC(=O)C1CCN(S(=O)(=O)c2ccc(F)cc2)CC1
 : 103	107
Cc1ccc2sc(-c3ccc(N)cc3)nc2c1
 : 106	113
COc1ccccc1N1CCN(c2ncnc3c2cnn3-c2cc(Cl)ccc2C)CC1
 : 110	109
CCCCc1cc(=O)oc2cc(C)c3c(C(C)(C)C)coc3c12
 : 101	95
CCc1ccc(NCc2cc3cc4c(cc3n(CC(=O)Nc3ccc(F)cc3)c2=O)OCCO4)cc1
 : 108	109
O=C(Cn1c(=O)n(Cc2ccc3c(c2)OCO3)c(=O)c2ccccc21)Nc1cccc(Cl)c1
 : 107	110
Cc1c(C(=O)NCc2ccc(Cl)cc2)oc2ccc3c(c12)C(=O)CC(C)(C)O3
 : 112	110
Cc1ccc2c(=O)cc(C(=O)Nc3ccc(S(=O)(=O)N4CCC(C)CC4)cc3)oc2c1C
 : 100	109
COc1ccc(CCNC(=O)CCc2c(C)nc3c(c(C)nn3-c3ccc(C)cc3)c2C)c(OC)c1
 : 106	102
O=C(CSCc1ccc(F)cc1)NCc1ccc(F)cc1
 : 116	122
CCc1ccc(OC(C)C(=O)Nc2c(C(=O)c3ccccc3)oc3ccccc23)cc1 (stereo not given)
 : 106	107

A second format for some results above.
O=C(Cn1c(=O)n(Cc2ccc3c(c2)OCO3)c(=O)c2ccccc21)Nc1cccc(Cl)c1
  PV pol inh: 107
  PV pol inh intensity: 110
Cc1c(C(=O)NCc2ccc(Cl)cc2)oc2ccc3c(c12)C(=O)CC(C)(C)O3
  PV pol inh: 112
  PV pol inh intensity: 110
Cc1ccc2c(=O)cc(C(=O)Nc3ccc(S(=O)(=O)N4CCC(C)CC4)cc3)oc2c1C
  PV pol inh: 100
  PV pol inh intensity: 109
COc1ccc(CCNC(=O)CCc2c(C)nc3c(c(C)nn3-c3ccc(C)cc3)c2C)c(OC)c1
  PV pol inh: 106
  PV pol inh intensity: 102

Remaining list, next part:
Below each compound: PV pol inh	PV pol inh intensity
COc1ccc(C2c3cc(OC)c(OC)cc3CC(=O)N2c2cccc(C#N)c2)cc1 (stereo not given)
 : 107	107
Cc1cccc(N(CC(=O)NCCSc2ccc(Cl)cc2)S(C)(=O)=O)c1C
 : 105	106
CCN(CC)C(=O)Cn1ncc2c([nH]c3ccccc32)c1=O
 : 114	107
Cc1ccc(NC(=O)CN2C(=O)COc3ccc(S(=O)(=O)N4CCCCCC4)cc32)c(C)c1
 : 110	113
CCOc1cc(CNC(=O)CCCn2c(=O)c3cccn3c3cccnc32)cc(OCC)c1OCC
 : 109	112
COc1ccc(CCNc2nc(SCc3cccc(F)c3)nc3ccccc23)cc1OC
 : 104	108
Cc1ccccc1-c1nc(SCC(=O)NCC2CCCO2)c2c(=O)n(C)c(=O)n(C)c2n1 (stereo not given)
 : 106	103
COc1ccc(-c2c(C)nn3c(-c4ccccc4)cc(-c4ccccc4)nc23)cc1OC
 : 105	109
Cc1cc(C)c2oc(-c3cc(NC(=O)Cc4ccccc4)ccc3Cl)nc2c1
 : 108	109
Cc1nc2ccc(S(=O)(=O)N(C)CC(=O)Nc3ccc(C(C)C)cc3)cc2s1
 : 110	109
COc1ccc(-c2noc(Cn3c(=O)c4ccccc4n(CC(=O)Nc4cccc(OC)c4)c3=O)n2)cc1
 : 107	112
